Compound activity: PubChem, several laboratories
RGS16-Gao HTS = RGS16-Galphao interaction regulator (human) | O15492+P09471 | bead-based flow cytometry RGS16-Galphao binding, fluorescence; actives lie on both sides | binding response (% of control), % at 10 µM | 220,000 compounds, 0.38% hits;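 active means below 25% or above 175%, edge rows of some plates excepted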;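 further: Galphao activated by GDP with aluminum fluoride before binding; 100% = wells without compound and 0% = beads without RGS; some results beyond the cut were filed as inactive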
INS promoter inh = TRM-6 insulin promoter activity inhibition; TRM-6 cells (human fetal islet line), insulin promoter-eGFP reporter, imaging; reporter expression induced with tamoxifen; inhibition, % at 2 µM; 130,000 compounds, 0.9% hits; AID 1273;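 active means inhibition above the mean plus 3 SD, with well images judged a real hit on visual review, cut at about 60% in these data, passing the limit was not always enough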
PKD1 inh = PKD1 (human) kinase inhibition. inhibition, %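 (about 10 µM by stock and volumes)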. PKD1 kinase fluorescence polarization assay. 200,000 compounds, 0.056% hits;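 active means inhibition of 50% or more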;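 further: controls were vehicle for no effect and a reference inhibitor for full effect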
Target sequence (Q15139 whole entry, looked up): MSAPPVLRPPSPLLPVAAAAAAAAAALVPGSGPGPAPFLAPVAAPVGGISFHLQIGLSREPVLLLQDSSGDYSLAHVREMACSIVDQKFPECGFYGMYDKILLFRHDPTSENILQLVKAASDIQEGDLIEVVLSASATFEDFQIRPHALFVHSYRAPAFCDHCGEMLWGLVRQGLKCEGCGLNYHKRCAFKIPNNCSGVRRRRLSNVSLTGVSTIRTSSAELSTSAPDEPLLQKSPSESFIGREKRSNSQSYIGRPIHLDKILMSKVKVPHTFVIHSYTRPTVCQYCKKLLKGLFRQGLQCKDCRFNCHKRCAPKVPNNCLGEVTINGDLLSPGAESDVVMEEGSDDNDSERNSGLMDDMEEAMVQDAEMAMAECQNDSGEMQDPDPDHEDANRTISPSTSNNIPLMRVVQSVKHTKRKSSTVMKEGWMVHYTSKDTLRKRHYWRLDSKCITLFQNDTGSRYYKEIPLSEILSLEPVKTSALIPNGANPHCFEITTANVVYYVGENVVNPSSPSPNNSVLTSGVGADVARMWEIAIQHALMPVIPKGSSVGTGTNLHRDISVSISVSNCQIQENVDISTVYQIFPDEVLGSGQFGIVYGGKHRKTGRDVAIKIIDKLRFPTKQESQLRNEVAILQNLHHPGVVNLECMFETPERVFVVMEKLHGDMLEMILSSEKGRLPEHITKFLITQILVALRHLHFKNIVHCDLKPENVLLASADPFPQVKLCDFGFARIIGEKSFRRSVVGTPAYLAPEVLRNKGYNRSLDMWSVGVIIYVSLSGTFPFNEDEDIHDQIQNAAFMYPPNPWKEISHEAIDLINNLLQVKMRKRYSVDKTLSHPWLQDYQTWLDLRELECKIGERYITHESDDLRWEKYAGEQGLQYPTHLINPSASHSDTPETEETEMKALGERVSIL
HSV replic up = HSV replication enhancement; HSV replication augmentation in cells, fold increase; maximum fold increase; 220,000 compounds, 0.005% hits; AID 1956;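 active means peak rise of 1.5-fold or more in the series; tested in PC3 cells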;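 further: first round at 10 µM; read as green reporter fluorescence; hits show the peak of a series up to 25 µM; 1 = signal of infected wells without compound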
GALR2 ag = agonists of human galanin receptor 2 (GALR2) | GALR2-expressing cells, agonist activation read-out | activation, %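 (tested at 5 µM)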 | 140,000 compounds, 0.48% hits;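 active means above mean plus 3 SD of all compounds, about 5% in these data, not always enough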;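 further: 0% = vehicle buffer wells and 100% = reference agonist at full effect; tested in CHO reporter cells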
INS promoter inh cell count = also measured in INS promoter inh; calls as there; normalized cell count, %; measured here: cell count, toxicity; reference of the scale not given here;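 cells exposed to compound for 48 h; stained nuclei by imaging scaled within each plate; lower means fewer cells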
HSV replic up primary fold = also measured in HSV replic up; calls as there; fold increase; compound at 10 µM; measured here: primary screen fold increase 10 uM; tested in PC3 cells;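 GFP signal in the first replicate; 1 = infected wells without compound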
The depositor's hits bear a star; i = inactive; nt = not tested or not shown.

no.	compound	HSV replic up	GALR2 ag	INS promoter inh	INS promoter inh cell count	HSV replic up primary fold	PKD1 inh	RGS16-Gao HTS
1	O=C(O)CCCNc1cc(N2CCC3(CC2)OCCO3)c2noc3c2c1C(=O)c1ccccc1-3	nt	-2.1	-92.9	73.4	nt	5.9	55.8
2	Cc1cc(C)c(NC(=O)NC(=O)c2ccc(F)cc2)c(C)n1	i	0.1	-37.5	53.6	0.95	5.4	100.3
3	O=C(c1sccc1Br)N1CCN(Cc2ccc3c(c2)OCO3)CC1	i	nt	nt	nt	1.31	nt	92.3
4	Cc1ccc(C)c(N2CCN(C(=O)c3cc(S(=O)(=O)N4CCOCC4)ccc3F)CC2)c1	i	-1.6	-87.5	52.5	0.99	-0.3	104.2
5	O=C(O)c1ccc2c(c1)C(=O)N(c1ncccn1)C2=O	i	-0.7	42.9	102.5	1.02	-13.7	90.8
6	Cc1ccc(C(=O)N/N=C2\CCc3ccccc32)c(C)c1	i	-0.1	19.4	118.2	0.98	12.6	97.0
7	Cc1sc2nc3n(c(=O)c2c1C)NC(=O)CC3	i	-1.0	44.7	66.2	1.11	-5.5	66.1
8	COc1cc(/C=N/NC(=O)c2c(C)nnn2-c2nonc2N)ccc1O	i	nt	nt	nt	0.78	-3.5	105.4
9	CC(C)(C)n1nc(-c2ccc(F)cc2)c2c(N)ncnc21	i	0.8	25.0	67.5	0.777	32.7	106.7
10	CC(C)N1CCc2c(sc(NC(=O)c3ccc(S(=O)(=O)N4CCc5ccccc54)cc3)c2C(N)=O)C1	i	nt	nt	nt	0.91	1.5	136.6
11	COC(=O)C1CCN(C(=O)Cc2ccc(C)cc2)CC1	i	-1.6	39.3	65.5	1.02	-3.8	102.7
12	O=C(CSc1ccc(-c2cccs2)nn1)c1cccs1	i	nt	25.0	93.2	0.93	0.1	100.6
13	CCOC(=O)CSc1nnc(-c2ccccc2NC(=O)c2ccccc2)o1	i	-1.2	nt	nt	1.08	-14.0	109.6
14	Nc1nc2ccccc2n1/N=C/c1ccc([N+](=O)[O-])s1	i	1.0	-42.9	85.5	0.59	52.5*	104.0
15	COc1ccc2oc(-c3ccccc3[N+](=O)[O-])cc(=O)c2c1	i	nt	nt	nt	0.75	-8.7	111.2
16	Cc1nn(-c2ccccc2)c2nc(Cl)c(C(=O)O)cc12	i	-1.1	nt	nt	0.95	-3.1	104.0
17	COc1ccccc1C(=O)NCCC(=O)N1CC(=O)Nc2ccccc21	i	-1.1	28.6	47.3	1.03	0.3	100.4
18	CCOC(=O)/C(=C\c1ccccc1)C(=O)c1cc(C(C)=O)c(Nc2ccccc2)s1	i	-0.4	-29.0	73.2	0.5	-6.9	105.5
19	CCO[C@@H]1OC(C(N)=O)=C[C@H](c2ccccc2)[C@H]1CCCO	i	nt	nt	nt	0.81	-6.0	94.1
20	Cn1nc(C(=O)NC(C)(C)C)c2ccccc21	i	-1.6	23.1	151.5	0.86	2.5	100.3
21	CC(C)(C)c1ccc(S(=O)(=O)N2CCCC2C(=O)NC2=NCCS2)cc1 (stereo not drawn)	i	-2.8	-51.6	85.6	0.92	4.8	96.9
22	CCCC(=O)CN1C(=O)C2(OCCO2)c2ccccc21	i	-2.6	nt	nt	0.69	-8.2	96.8
23	Cc1ccccc1NC(=S)NC1CC2CCC(C1)N2Cc1ccco1 (stereo not drawn)	i	-0.6	nt	nt	1.2	-3.6	145.4
24	O=C(Nc1ccc(Br)c2cccnc12)c1ccc(Cn2cc(Cl)cn2)o1	i	-1.9	-16.7	96.9	1.05	1.8	101.3
25	O=C(COc1c(F)c(F)c(C(F)(F)F)c(F)c1F)Nc1ccc(N2CCOCC2)c(Cl)c1	nt	-0.4	nt	nt	nt	-11.2	94.3

PKD1 inh, entries above that show a hit
No.	Structure	HSV replic up	GALR2 ag	HSV replic up primary fold	PKD1 inh	RGS16-Gao HTS
14	Nc1nc2ccccc2n1/N=C/c1ccc([N+](=O)[O-])s1	i	1.0	0.59	52.5*	104.0

(listing goes on)
no.	compound	HSV replic up	GALR2 ag	INS promoter inh	INS promoter inh cell count	HSV replic up primary fold	PKD1 inh	RGS16-Gao HTS
26	O=C(CSc1nnc(C2CC2)n1Cc1ccccc1)c1cc2ccccc2o1	i	-0.7	nt	nt	1.06	-12.3	103.4
27	CC(C)CCNC(=S)Nc1ccccc1F	i	-0.9	2.7	120.0	0.94	-14.0	103.1
28	COc1ccc([N+](=O)[O-])cc1NC(=O)c1cncc(Br)c1	i	nt	nt	nt	0.92	0.9	96.8
29	Cc1cccc(CCN(Cc2cc3cccc(C)c3[nH]c2=O)C(=O)N2CCOCC2)c1	i	-0.1	nt	nt	0.84	-10.5	108.2
30	c1ccc(CNc2cnccn2)cc1	i	-1.7	3.6	112.4	1.48	0.9	105.2
31	Cc1ccc(NC(=S)NNC(=O)CSc2nnc(-c3ccc(Cl)cc3)n2C2CCCCC2)cc1	i	-0.8	9.7	134.8	0.92	-3.6	98.2
32	COc1cccc(C2C3=C(CCCC3=O)Nc3[nH]n(-c4ccccc4)c(=O)c32)c1 (stereo not drawn)	i	nt	nt	nt	0.8	0.0	106.6
33	CC(=O)Nc1cc(C)nn1-c1nc2ccccc2s1	nt	nt	42.9	133.8	nt	-12.0	103.5
34	COc1ccc(NC(=O)COC(=O)CC2CC3CCC2C3)c([N+](=O)[O-])c1 (stereo not drawn)	i	0.8	nt	nt	1.21	3.5	98.2
35	Cn1c(=O)c2c(ncn2CC(N)=O)n(C)c1=O	i	-0.7	28.6	108.5	1	-9.8	103.0
36	CCN(CC)C(=O)Cn1cc(SCC(=O)NC2CCCC2)c2ccccc21	i	nt	-125.0	158.2	0.8	-2.8	113.2
37	CCS(=O)(=O)n1nc(-c2ccccc2)nc1SCc1ccccc1	i	1.2	21.0	115.7	0.913	-0.5	102.0
38	CC(C)n1c(N2CCN(C(=O)Nc3ccc(Cl)cc3)CC2)nc2ccccc21	i	nt	nt	nt	0.88	-1.0	102.3
39	CC1(C)Cc2c(sc3nn[nH]c(=O)c23)CO1	i	-2.5	nt	nt	0.97	-14.5	100.0
40	COc1ccc(C(CNC(=O)Cn2[nH]c(=O)c3ccccc3c2=O)N2CCCC2)cc1 (stereo not drawn)	i	-2.0	nt	nt	0.97	-6.9	100.0
41	Cc1cc(C(=O)OCC(=O)NCc2ccc3c(c2)OCO3)c2ccccc2n1	i	nt	nt	nt	1.01	3.8	101.6
42	Cc1ccc(C(C)C)c(OCc2ccc(C(=O)N/N=C/c3ccc(O)c(O)c3)cc2)c1	i	1.9	-64.7	103.9	0.86	-10.8	76.0
43	O=C(c1ccco1)N1CCN(c2ncnc3c2[nH]c2ccc(Br)cc23)CC1	nt	0.1	nt	nt	nt	-13.3	96.4
44	Cc1cc2cc(NC(=O)c3ccco3)ccc2[nH]1	i	-1.7	0.0	132.6	1.02	-5.1	101.4
45	CC(c1ccco1)N(C(=O)c1ccc(C#N)cc1)c1ccccn1 (stereo not drawn)	i	-0.6	7.1	127.7	1.04	-2.8	102.1
46	Cn1nnc(NC(=O)c2ccccc2F)n1	i	-2.4	12.9	117.2	0.96	-6.7	83.3
47	Cc1cccc(N2C(=O)CC(Sc3nc(-c4ccccc4)c4cc(Cl)ccc4n3)C2=O)c1 (stereo not drawn)	i	-1.3	5.0	115.9	0.96	-3.0	99.6
48	COc1ccc(N(C(=O)c2cnsn2)C(C(=O)NC2CCCCC2)c2ccncc2)cc1 (stereo not drawn)	i	-1.8	-13.5	31.3	0.95	-16.1	68.2
49	COc1ccc(/C=N/NC(=O)CCn2cnc3ccccc32)cc1	i	nt	nt	nt	1.02	nt	103.1
50	COc1ccc(NC2=Nc3cccc4cccc2c34)cc1OC	i	-2.0	-25.0	88.8	0.94	-2.4	109.2

Some of the entries above, reformatted:
26. O=C(CSc1nnc(C2CC2)n1Cc1ccccc1)c1cc2ccccc2o1
  HSV replic up: i
  GALR2 ag: -0.7
  INS promoter inh: nt
  INS promoter inh cell count: nt
  HSV replic up primary fold: 1.06
  PKD1 inh: -12.3
  RGS16-Gao HTS: 103.4
27. CC(C)CCNC(=S)Nc1ccccc1F
  HSV replic up: i
  GALR2 ag: -0.9
  INS promoter inh: 2.7
  INS promoter inh cell count: 120.0
  HSV replic up primary fold: 0.94
  PKD1 inh: -14.0
  RGS16-Gao HTS: 103.1

The list goes on:
no.	compound	HSV replic up	GALR2 ag	INS promoter inh	INS promoter inh cell count	HSV replic up primary fold	PKD1 inh	RGS16-Gao HTS
51	Cc1cc(SCNC(=O)c2ccccc2)nc(C(C)C)n1	i	nt	-21.4	127.5	1	-8.1	111.9
52	CCOC(=O)C1=C(C)Nc2ccccc2N=C1NC(=O)c1ccc(Cl)c(S(=O)(=O)N2CCCC2)c1	i	nt	nt	nt	0.88	-4.4	104.0
53	O=[N+]([O-])c1ccc(N2CCN(S(=O)(=O)c3ccc4ccccc4c3)CC2)cc1NCC1CCCO1 (stereo not drawn)	i	-1.7	-7.7	73.7	0.9	-1.4	103.7
54	CCN(CC)S(=O)(=O)c1ccc(C(=O)NCc2n[nH]c(=S)n2Cc2ccccc2)cc1	i	-0.3	-9.1	144.3	1.38	-19.3	81.2
55	CCOC(=O)c1c(N)sc(C(O)(C(F)(F)F)C(F)(F)F)c1-c1ccc(OC)cc1OC	i	-1.5	-50.0	64.1	0.84	-1.2	104.5
56	c1ccc(-c2nc3nc4ccccc4nc3n2Cc2ccco2)cc1	i	0.2	-200.0	99.4	0.933	-13.7	101.0
57	CCN(CC)S(=O)(=O)c1ccc(NC(=O)COC(=O)c2ccc(Br)o2)cc1	i	-0.6	50.0	103.9	1.01	-1.9	102.5
58	N#Cc1cc2c(nc1SC1CCCCC1O)CCCC2 (stereo not drawn)	i	-1.0	16.2	38.3	0.94	-8.4	101.6
59	CC(=O)N1N=C(c2ccncc2)OC12CCCCC2	i	-1.8	-8.3	63.5	1.11	3.5	100.1
60	Cc1cc(C)n2nc(C(F)(F)F)c(-c3ccccc3)c2n1	i	nt	nt	nt	0.99	0.2	54.2
61	O=C(CNC(=O)c1ccccc1F)NCCOc1ccccc1Cl	i	-0.4	-29.0	98.3	0.76	-5.8	110.9
62	O=C(CCC(=O)c1ccc(Oc2ccccc2)cc1)Nc1cccc(Cl)c1Cl	i	0.1	18.2	121.1	0.89	-4.7	104.2
63	CCOc1ccccc1-c1nnc(SCC(=O)NC2CC3CCC2C3)n1CC (stereo not drawn)	i	-0.6	-13.5	79.0	0.97	-2.0	97.1
64	Cc1cc(C)cc(NC(=O)c2nccnc2C(=O)O)c1	i	-1.3	nt	nt	0.94	-6.0	102.4
65	CCOc1ccc(C(CC(=O)O)n2cnnn2)cc1 (stereo not drawn)	i	nt	-9.1	17.6	0.97	-4.4	77.2
66	Cc1cc2oc(=O)cc(C)c2c(=O)o1	i	1.6	-10.5	88.9	0.95	-5.6	115.6
67	CN(C)CCOc1nc(-c2ccccc2)nc2c1oc1ccccc12	i	0.5	8.8	49.8	0.923	-4.9	120.5
68	CN(C)CCCNC(=O)c1ccc(CN(c2ccccc2)S(C)(=O)=O)cc1	i	-2.0	-34.4	100.3	0.95	-15.1	180.8
69	Cc1cnc(NC(=O)CSc2nc3ccccc3s2)s1	i	-1.4	35.7	127.7	1.02	-2.8	158.6
70	Cc1cccc(C)c1OCCNC(=O)CCC(=O)c1ccccc1	i	-1.2	nt	nt	0.95	0.3	99.6
71	CC(=O)N1CCc2cc(S(=O)(=O)NC(C(=O)NC3CCCc4ccccc43)C(C)C)ccc21 (stereo not drawn)	i	-0.2	nt	nt	1.11	-2.4	110.5
72	FC(F)C(F)(F)C1=CC(c2cccs2)=NCCN1	i	-3.2	-14.3	93.8	1	8.3	113.7
73	O=C1CCC(=O)N1c1ccc(CSc2nc3ccccc3[nH]2)cc1	i	-0.2	0.0	90.8	0.95	-3.4	101.0
74	O=C(CSc1ccccn1)N1CCN(c2ccccc2)CC1	i	-1.0	nt	nt	1.08	-0.8	98.0
75	O=C(CC1CCCCC1)N1CCN(c2ccccn2)CC1	i	-2.4	-25.0	85.7	0.92	17.6	113.3
76	O=C(c1cccc(C(F)(F)F)c1)C1CCCN(C(=O)CCCN2CCCC2=O)C1 (stereo not drawn)	i	nt	-10.0	122.9	1	5.5	100.3
77	COCCNCCCOc1ccc(C)cc1Br	i	nt	nt	nt	0.76	-11.3	105.6
78	CCOC(=O)c1cc(CC)sc1/N=C/C1=C(O)CCCC1=O	i	-0.6	32.3	117.9	1.29	-8.2	111.8
79	O=C(Cn1cnc2ccccc21)OCC(=O)N1CCc2ccccc2C1	i	-1.2	-4.3	92.7	1	-1.0	121.8
80	Cc1cc(/C=N/NC(=O)COc2cccc3cccnc23)c(C)n1-c1ccc(O)cc1	i	-2.0	13.9	133.7	0.91	-13.9	104.9
81	COc1ccc(-c2cc(-c3nnc(COC(=O)C4CC4C)o3)c3ccccc3n2)cc1OC (stereo not drawn)	i	0.2	nt	nt	0.85	-1.6	93.6
